Source: PubChem (several laboratories)
Calb FLC: C. albicans growth modulation with fluconazole | growth inhibition, % (no concentration beside the values) | AID 1979 | C. albicans CaCi-2 (fluconazole-resistant clinical isolate) + fluconazole, Alamar Blue growth, 48 h | 300,000 tested, 0.57% active;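 active means most replicates above 75%; inconclusive means exactly half above 75%; inactive means most below 75%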;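 further: all wells also contain fluconazole at 8 µg/ml as a sub-toxic cotreatment; 0% = median of DMSO wells and 100% = median of geldanamycin control wells; wells of about 8 µL received 7.5 nL stock; the first replicate is given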
Ecoli rRNA inh: inhibits bacterial ribosomal RNA function over humanized ribosomes. 350,000 tested, 1.6% active. E. coli WT GFP vs humanized-ribosome RFP mutants, fluorescence, 24 h; hits give low values; DMSO median 0, no signal -100. GFP signal change (wild-type ribosome), % (test concentration not listed);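 active means significant combined selectivity score with lowered wild-type GFP, culture density cut under 30%, mutant RFP and density less affected; inactive means any of these conditions unmet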; further: one replicate is shown; some compounds called inactive have numbers as strong as hits
A1 inh: inhibitors of the anti-apoptotic protein A1, read as caspase activation; MEF A1-2A-BIM cells, Caspase-Glo 3/7 luminescence, 3 h; percent of clofoctol response, vehicle zero; caspase activation, % (no concentration beside the values); 330,000 tested, 0.066% active; AID 2462;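 active means over half of replicate activation scores above 10%, or exactly half above 10 with the replicate mean above 10; inconclusive means replicate mean below 10 yet half the replicates above 10; inactive means over half of replicates below 10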;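 further: wells of about 30 µL received 50 nL stock; many hits fall short of the cut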
Vif TR-FRET: HIV-1 Vif–A3G interaction blockers – biochemical, TR-FRET, GST-Vif 1-94, biotin-A3G peptide, dose response retest, primary screen (AID 1117319). 260,000 tested, 0.57% active. TR-FRET GST-Vif / biotin-A3G peptide binding; higher % means a stronger effect; test concentration not given here; strong numbers were not always called active. one-dose inhibition, %; IC50 in µM for titrated hits;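 active means above the screen mean plus three standard deviations and confirmed in dose response; inconclusive means results disagree or hit not tested in dose response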;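 further: Vif residues 1-94 fused to GST binding biotinylated APOBEC3G peptide 110-148; 0% = full assay without inhibitor and 100% = GST in place of GST-Vif; retest series ran down from 100 µM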
T cruzi repl: blocks replication of Trypanosoma cruzi | T. cruzi beta-gal in NIH3T3, luminescence, 90 h | 300,000 tested, 1.4% active | AID 1885 | inhibition, % (no concentration beside the values);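 active means mean inhibition across valid replicates above about 55%, limit read from the data; inconclusive means mean below that limit but half or more replicates reach it; inactive means mean below it, under half of replicates reach it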;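 further: signal also drops with host cell toxicity which is not excluded here; 0% = plate median of DMSO wells and 100% = zero luminescence signal; higher percent means less beta-gal luminescence so fewer parasites; stock transfer was 50 nL into about 50 µL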
RanGTP-Imp inh: inhibitors of RanGTP-importin-beta interaction, primary screen, biochemical, FRET, CFP-Ran, YFP-importin-beta, homogeneous; cell-free CFP-Ran/YFP-importin-beta FRET ratio; inhibition, % (concentration not given with the values); 300,000 tested, 1.1% active; AID 2216;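 active means most replicates above 15%; inconclusive means exactly half above 15%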;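 further: 0% = DMSO wells and 100% = Ran loaded with GDP instead of GTP; wells of about 40 µL received 100 nL stock; the first replicate is given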
AF4-AF9 inh: blocks AF4 peptide binding to human AF9; AlphaScreen, biotin-AF4 peptide binding to FLAG-AF9; inhibition, % at 10 µM; 350,000 tested, 0.47% active;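 active means every replicate reaching a set inhibition limit, whatever the replicate mean, cut at about 25% in these data; inconclusive means mean inhibition reaches that limit but some replicates miss it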;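 further: 0% = plate neutral control median and 100% = total signal loss; the record names both 10 and 1 µM as test concentration; the first replicate is given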
Target sequence (P42568 whole entry, looked up): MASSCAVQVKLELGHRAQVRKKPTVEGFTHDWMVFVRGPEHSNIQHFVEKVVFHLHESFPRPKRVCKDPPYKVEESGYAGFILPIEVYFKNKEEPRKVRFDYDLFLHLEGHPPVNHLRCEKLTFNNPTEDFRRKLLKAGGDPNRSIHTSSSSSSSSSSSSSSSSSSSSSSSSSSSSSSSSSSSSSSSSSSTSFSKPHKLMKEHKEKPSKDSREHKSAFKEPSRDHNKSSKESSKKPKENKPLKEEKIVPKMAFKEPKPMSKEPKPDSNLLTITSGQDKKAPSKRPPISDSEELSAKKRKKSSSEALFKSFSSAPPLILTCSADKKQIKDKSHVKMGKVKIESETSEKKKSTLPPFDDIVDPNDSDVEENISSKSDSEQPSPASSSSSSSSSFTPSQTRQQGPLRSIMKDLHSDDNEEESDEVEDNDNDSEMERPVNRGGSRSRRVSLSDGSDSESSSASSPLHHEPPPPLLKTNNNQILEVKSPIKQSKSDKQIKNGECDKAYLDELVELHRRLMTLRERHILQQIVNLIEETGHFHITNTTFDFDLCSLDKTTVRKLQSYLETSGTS
Beta apoptosis: beta cell apoptosis inhibition; INS-1E cytokine-induced death, ATP luminescence, 48 h; percent of positive-control rescue, neutral wells zero; protection from apoptosis, % (test concentration not listed); 300,000 tested, 0.8% active; AID 435005;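 active means all replicates at 75% or more, or half of them and the mean; inconclusive means half reach 75% but not the mean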;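 further: 0% = cytokine-treated negative control wells and 100% = positive control rescue; higher means more ATP so stronger rescue from cytokine killing; wells of about 40 µL received 100 nL stock; the first replicate is given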
Ecoli rRNA inh OD600: also measured in Ecoli rRNA inh; calls as there; OD600 change, %; measured here: OD600 growth;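 optical density of the mix in the first replicate; 0 = DMSO median and -100 = no signal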
Ecoli rRNA inh RFP: recorded beside Ecoli rRNA inh, whose call it bears; RFP signal change, %; measured here: RFP humanized mutant strains;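 first replicate; 0 = DMSO median and -100 = no signal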
An asterisk follows results filed as active; ? = inconclusive; . = no result given; & = joins results of further samples.

The line under a structure holds: Calb FLC	Ecoli rRNA inh	Ecoli rRNA inh OD600	Ecoli rRNA inh RFP	A1 inh	Vif TR-FRET	T cruzi repl	RanGTP-Imp inh	AF4-AF9 inh	Beta apoptosis
Cc1ccc(OC(C)C(=O)N2CCc3ccccc32)cc1 (centres undefined)
 : 0	.	.	.	-0.1	2%	-1	4.9	.	-1
CC(=O)C[C@@H](O)CC(=O)[C@H]1OC(=O)[C@H](C)C/C=C\Cc2ccccc21
 : .	19	7	3.7	1.1	0%	.	.	-1.4	-5
Cc1ccccc1Cn1ccc(NC(=O)c2nn3cccnc3c2Cl)n1
 : 1	-7	-2	0.6	0.4	16%	8	1.3	-0.3	3
O=C(O)[C@@H](c1ccccc1)N1Cc2ccccc2C1=O
 : -2	11	7	1.4	0.4	7%	-7	2.9	15	4
CCOc1ccc(S(=O)(=O)N(CC(=O)NCc2cccnc2)c2ccc(C)cc2)cc1
 : 5	-1	-13	1.2	0.8	.	11	2.3	-0.9	-1
C[C@]1(CC/C(=C/CO)CO)[C@H](CO)CC[C@@]23COC(=O)C2=CCC[C@@H]31
 : .	6	13	-5.9	1.5	.	.	.	-1.6	-2
Cc1cccc(-c2c(O)cc(=O)[nH]c2Cl)c1
 : -18	3	1	-1.2	1.1	10%	-16	?	-2.7	0
Cc1ccccc1NC(=O)/C(C#N)=C\c1cn(CC(=O)O)c2ccccc12
 : -24	6	-1	0.8	-0.3	-2%	5	20*	-0.2	0
CCOc1ccc(Nc2nc(N)c3ccccc3n2)cc1
 : -3	17	-39	-0.1	-8.4	.	33	8.3	18	.
CN(C)S(=O)(=O)c1cccc(C(=O)N2CCc3ccccc32)c1
 : -5	.	.	.	-0.9	4%	-5	0.0	.	-7
Cc1cc(NC(=O)COC(=O)[C@H](Cc2c[nH]c3ccccc23)NC(=O)c2ccc(F)cc2)no1
 : 25	.	.	.	0.7	2%	-13	6.7	.	-7
COc1ccc(N2CCN(C(=O)c3ccc(N(C)S(=O)(=O)c4ccc(C)cc4)cc3)CC2)cc1
 : -5	-19	-18	4.2	-1.0	3%	6	-0.2	13	13
COc1ccc(N(CC(=O)N/N=C/c2ccc(N(C)C)cc2)S(=O)(=O)c2ccccc2)cc1
 : -16	1	-1	2.9	-1.0	1%	5	0.1	4.5	0
COC(=O)C1=C(C)N(Cc2cccnc2)C(=O)C1
 : 15	.	.	.	0.0	28%	-9	-4.4	.	-4
CN1CCN(C(=O)c2ccc3c(c2)OCCO3)CC1
 : 7	.	.	.	-0.6	-8%	-27	8.4	.	1

Next part; it opens with the 3 that closed the last part.
The line under a structure holds: Calb FLC	Ecoli rRNA inh	Ecoli rRNA inh OD600	Ecoli rRNA inh RFP	A1 inh	Vif TR-FRET	T cruzi repl	RanGTP-Imp inh	AF4-AF9 inh	Beta apoptosis
COc1ccc(N(CC(=O)N/N=C/c2ccc(N(C)C)cc2)S(=O)(=O)c2ccccc2)cc1
 : -16	1	-1	2.9	-1.0	1%	5	0.1	4.5	0
COC(=O)C1=C(C)N(Cc2cccnc2)C(=O)C1
 : 15	.	.	.	0.0	28%	-9	-4.4	.	-4
CN1CCN(C(=O)c2ccc3c(c2)OCCO3)CC1
 : 7	.	.	.	-0.6	-8%	-27	8.4	.	1
COc1cccc2c1cc1c(=O)n(CC(=O)NC3CCCCC3)nc(C)n12
 : -15	.	.	.	1.6	.	17	1.8	.	-6
Cc1noc(C)c1CSc1ccccc1C(=O)N1CCN(c2ccccc2)CC1
 : -16	.	.	.	0.6	14%	0	-2.1	.	.
Cc1ccc(S(=O)(=O)N2CCCCC2)cc1C(=O)N(C)CCOc1ccccc1
 : 1	-5	-8	1.3	1.8	-9%	15	-1.1	4.2	2
COC(=O)[C@H]1Cc2c([nH]c3ccccc23)[C@H](c2ccccc2)N1
 : 1	-6	-21	-16	0.7	2%	2	1.0	-0.2	-2
CCOc1ccc(NC(=O)CN(C)C(=O)COc2cccc3c2OC(C)(C)C3)cc1OCC
 : .	0	-4	2.8	-1.9	1%	.	.	3.1	-5
Cc1cc(C(=O)N/N=C/c2ccncc2)c(C)o1
 : -6	7	-2	-1.1	-2.6	0%	-12	-1.4	3.5	10
Cc1cccc(S(=O)(=O)Nc2ccc(-c3nc4ccc(C)cc4s3)cc2)c1
 : -1	8	-1	-1.3	0.2	0%	2	?	-1.2	5
CC(=O)c1cc(-c2nc3ccccc3n2C)n(C)c1
 : -4	.	.	.	-1.5	21%	-13	1.6	.	0
COc1cc(C)ccc1OCc1cc(C(=O)NCc2ccncc2)no1
 : -1	-5	2	-0.2	?	19%	6	0.9	-0.6	.
COc1ccc(N(C2CSC2)S(=O)(=O)c2ccccc2)cc1
 : 8	.	.	.	0.1	3%	0	-3.7	.	1
COc1cccc(C(=O)NN2C(=S)N(c3ccccc3)C(=O)C2CC(N)=O)c1 (centres undefined)
 : 6	10	6	1.0	-0.1	.	0	-2.6	-2.1	-4
CONC(=O)Nc1ccccc1[N+](=O)[O-]
 : 3	.	.	.	1.3	.	-23	2.6	.	-7
O=C(CN1C(=O)S/C(=C\c2cccc(Cl)c2)C1=O)NC1C=CS(=O)(=O)C1 (centres undefined)
 : -7	-2	0	-0.2	-0.7	.	-11	-1.5	-0.2	-16
COCCCNC(=O)CS(=O)(=O)Cc1nc(-c2ccccc2C)oc1C
 : 18	4	-4	-5.1	-0.8	14%	4	-0.9	-1.1	-6
c1ccc(CNc2nc(-c3cccs3)nc3ccccc23)nc1
 : 16	-52	-73	-12	-0.2	.	19	0.6	-1.1	-4

The line under a structure holds: Calb FLC	Ecoli rRNA inh	Ecoli rRNA inh OD600	Ecoli rRNA inh RFP	A1 inh	Vif TR-FRET	T cruzi repl	RanGTP-Imp inh	AF4-AF9 inh	Beta apoptosis
Cc1cccc(NC(=O)C2CCN(S(=O)(=O)c3c(C)noc3C)CC2)c1
 : 0	-5	-5	1.3	1.5	-3%	18	1.7	1.4	.
COc1ccc(NC(=O)c2cccnc2Nc2ccc(OC)cc2)cc1
 : 7	.	.	.	0.3	-3%	16	3.7	.	4
Cc1cccc(NS(=O)(=O)c2cccc(C(=O)N3CCCCCCC3)c2)c1
 : .	-62	-80	-21	1.6	?	.	.	-0.5	2
Cn1cccc1Cc1nnc(SCC(=O)Nc2ccc(F)cc2)n1-c1ccc(F)cc1
 : -13	3	2	-0.1	0.4	-2%&-7%	-1	2.2	-0.3	-14
C/C(=N\NC(=O)c1cc(-c2cccs2)nc2ccccc12)c1ccccn1
 : 95*	7	7	5.5	-1.2	9%	36	3.4	0.8	102*
CCOc1ccc(N(C(=O)c2snc(C(N)=O)c2N)C(C(=O)NC2CCCC2)c2ccncc2)cc1 (centres undefined)
 : 36	-3	5	2.4	0.4	.	25	-1.7	0.9	-5
CCN1CCCC1CNC(=O)C1CCN(Cc2nc(-c3cccc(Br)c3)oc2C)CC1 (centres undefined)
 : -1	.	.	.	-0.6	-1%	43	2.5	.	0
O=C(Nc1ccc2c(c1)OCO2)C1CCN(S(=O)(=O)c2ccc3c(c2)OCCO3)CC1
 : -6	.	.	.	1.3	2%&1%	19	?	.	1
CCOC(=O)C1=NN(c2ccc(Cl)cc2)/C(=C/C2=NCCc3cc(OC)c(OC)cc32)S1
 : -3	11	7	4.5	-0.4	-3%	15	-5.5	-4.8	-2
Cc1ccc(/C(=N/Nc2nc3ccccc3s2)C2=C(O)c3ccccc3C2=O)cc1
 : -2	2	0	0.5	-0.1	.	2	0.8	2.6	3
CN(C)CCNC(=O)C12CC3(C)CC(C)(CC(C)(C3)C1)C2
 : 4	.	.	.	-0.1	15%	7	1.5	.	1
CN=c1scc(C)n1/N=C/c1ccc(O)cc1O
 : 2	.	.	.	-13	7%	10	-0.5	.	15
Cc1ccc(-c2nnc3cccc(Cl)n23)cc1
 : 3	-3	-2	-0.9	0.9	0%	-14	-2.6	-4.1	-4
COc1ccc(Nc2nc(-c3cccc(OC)c3O)nc3ccccc23)cc1
 : 14	-7	-3	-0.2	-0.4	4%	36	0.1	6.8	17
CCCCOC(=O)C1=C(C)Nc2ncnn2C1c1cc(OC)ccc1OC (centres undefined)
 : 3	.	.	.	0.1	-5%	10	?	.	2

The line under a structure holds: Calb FLC	Ecoli rRNA inh	Ecoli rRNA inh OD600	Ecoli rRNA inh RFP	A1 inh	Vif TR-FRET	T cruzi repl	RanGTP-Imp inh	AF4-AF9 inh	Beta apoptosis
O=C(Nc1nncs1)c1cc(S(=O)(=O)N2CCOCC2)ccc1Cl
 : -1	3	-5	-0.4	-0.6	-4%	-10	-0.3	-1.0	-3
Cc1ccc(NC(=O)C(=O)NCCN2CCN(C(=S)Nc3ccccc3)CC2)cc1
 : -3	.	.	.	0.4	17%	-12	-1.8	.	-1
Brc1ccccc1-n1nnc(-c2cnc3ccccc3c2)n1
 : -9	-27	-27	-16	0.5	.	1	-2.2	8.4	4
COC(=O)c1c(C)oc2ccc(N(C(=O)Oc3ccccc3)S(=O)(=O)c3ccccc3)cc12
 : -7	8	-4	-1.0	-0.1	-9%	-32	0.8	-1.9	40
NS(=O)(=O)c1ccc(CNC(=O)c2cc(-c3cccs3)nc3ccccc23)cc1
 : -3	11	7	3.7	0.4	-12%	-8	-6.6	0.6	2
COc1ccc(S(=O)(=O)Nc2cccc(S(=O)(=O)NC3=NCCC3)c2)cc1[N+](=O)[O-]
 : -4	8	2	-1.9	-0.9	-6%	4	-0.7	-1.6	-6
COC(=O)c1ccc(CSc2nc(C(F)(F)F)c3c(c2C#N)CCC3)o1
 : 13	.	.	.	0.1	?	10	-0.2	.	-2

An excerpt. The share of hits here may be higher or lower than overall.
